# UCH37 DUB inh: human UCH37 deubiquitinating enzyme inhibition | purified proteasome/UCH37, Ub-AMC cleavage fluorescence | Q9Y5K5 | inhibition, % (no concentration beside the values) | AID 588478 | 330,000 tested, 0.33% active;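 active means mean of two replicates above 20%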;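 further: 0% = compound-free wells with enzyme and 100% = wells lacking proteasome; stock transfer was 100 nL into about 20 µL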
# Target sequence (Q9Y5K5 whole entry, looked up): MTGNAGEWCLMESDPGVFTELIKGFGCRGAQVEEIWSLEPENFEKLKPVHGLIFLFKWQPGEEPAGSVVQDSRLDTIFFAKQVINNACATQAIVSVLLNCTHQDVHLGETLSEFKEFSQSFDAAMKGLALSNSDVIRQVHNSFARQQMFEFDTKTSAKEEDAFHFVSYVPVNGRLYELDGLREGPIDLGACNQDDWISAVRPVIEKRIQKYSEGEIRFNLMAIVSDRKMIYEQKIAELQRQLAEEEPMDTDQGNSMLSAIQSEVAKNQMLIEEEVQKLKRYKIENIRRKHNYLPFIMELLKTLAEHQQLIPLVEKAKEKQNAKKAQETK
#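 Reagent: Ub-AMC substrate; assay system: Proteasome-associated human UCH37 deubiquitinase; controls: no-proteasome and no-compound wells; read-out: % inhibition of Ub-AMC cleavage fluorescence; timing: 30 min preincubation with enzyme, 25 min cleavage at room temperature; signal: AMC fluorescence from Ub-AMC cleavage, excitation 355 nm, emission 460 nm; buffer or medium: Tris-HCl pH 7.4 plus ovalbumin, ATP-MgCl2, DTT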
# E coli growth: inhibitors of Escherichia coli growth; OD600, 23 h; hits give low values; OD600 absorbance (no concentration beside the values); 330,000 tested, 0.21% active;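 active means OD600 absorbance below the run mean of sample wells minus 3.6 SD, in any replicate, cut at about 0.56 in these data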;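 further: stock transfer was 300 nL into about 60 µL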
# FGF22 binding: FGF22 (human) thermal shift binding; 340,000 tested, 1.5% active; recombinant FGF22 thermal shift, SYPRO orange fluorescence; percent of sucrose octasulfate shift, DMSO zero; calls only at 9.99 µM;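 active means melting point raised past a set limit in the mean and every replicate; three in four hits are not shown here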
# Beta2AR agonist: human beta-2 adrenergic receptor agonism by FAP | P07550 | Am2.2-beta2AR cells, FAP receptor internalization, flow cytometry; reference of the scale not given here | response, % (test concentration not listed) | 340,000 tested, 0.43% active | AID 504454;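 active means response above a set limit, near 3 SD of response in nonfluorescent compounds, cut at about 42% in these data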;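 further: stock transfer was 100 nL into about 11 µL; a reference agonist was the positive control; negative values mostly stem from fluorescent compounds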
# HNF4A DNA FP: change in binding of human HNF4 alpha to DNA | P41235 | HNF4a-FITC DNA binding, fluorescence polarization, 1 h | activity change, % at 10 µM | 360,000 tested, 0.3% active; in the data active means activity change above about 30%, passing the limit was not always enough;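 further: controls were the assay level and a saturating level of protein; the project sought stronger binding though the title names inhibitors; some compounds called inactive have numbers as strong as hits; positive values seem to mean higher polarization but the record does not say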
# Target sequence (P41235 whole entry, looked up): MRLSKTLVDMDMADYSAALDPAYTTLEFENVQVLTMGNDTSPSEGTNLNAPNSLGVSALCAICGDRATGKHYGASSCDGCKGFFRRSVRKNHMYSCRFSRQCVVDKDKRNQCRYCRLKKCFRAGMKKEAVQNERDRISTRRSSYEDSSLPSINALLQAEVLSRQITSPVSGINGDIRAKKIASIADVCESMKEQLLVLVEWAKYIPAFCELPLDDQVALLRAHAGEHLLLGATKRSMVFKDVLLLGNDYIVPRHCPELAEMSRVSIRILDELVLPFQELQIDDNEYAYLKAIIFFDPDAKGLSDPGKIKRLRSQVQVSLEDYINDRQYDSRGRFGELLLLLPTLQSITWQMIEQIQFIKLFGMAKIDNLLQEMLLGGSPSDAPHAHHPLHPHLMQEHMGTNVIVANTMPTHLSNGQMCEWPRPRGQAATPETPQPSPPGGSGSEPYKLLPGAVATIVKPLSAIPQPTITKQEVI
# ALR H2O2 inh: inhibitors of human sulfhydryl oxidase ALR; inhibition, % (concentration not given with the values); AID 485317; P55789; purified ALR, DTT oxidation, H2O2 HRP-luminol luminescence; 290,000 tested, 3.8% active;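 active means mean and each replicate at 75% or more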;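 further: stock transfer was 7.5 nL into about 7.5 µL; 0% = neutral wells and 100% = wells with inactivated enzyme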
# Target sequence (P55789 whole entry, looked up): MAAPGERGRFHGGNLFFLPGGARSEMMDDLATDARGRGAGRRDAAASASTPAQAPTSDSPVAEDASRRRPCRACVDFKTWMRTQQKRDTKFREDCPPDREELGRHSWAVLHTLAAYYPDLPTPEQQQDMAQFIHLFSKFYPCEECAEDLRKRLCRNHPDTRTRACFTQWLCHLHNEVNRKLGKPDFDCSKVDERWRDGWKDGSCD
# LANA-H2A inh: blocks KSHV LANA binding to histone H2A/H2B. 320,000 tested, 0.6% active. cell-free LANA-H2A/H2B peptide, fluorescence polarization. inhibition, % (no concentration beside the values). Q9QR71; in the data active means inhibition mostly above about 10%, no sharp cut-off; inactive means mostly below about 6.7%;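 further: stock transfer was 7.5 nL into about 10 µL; 0% = median of vehicle wells and 100% = median of positive control wells; one replicate is shown; the record names a cut of 25% in any replicate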
# * marks the source's active call; other numbers are inactive results; i = inactive; / = not tested or not shown; + = active, no number.
SMILES,UCH37 DUB inh,E coli growth,FGF22 binding,Beta2AR agonist,HNF4A DNA FP,ALR H2O2 inh,LANA-H2A inh
O=C(NC(=S)Nc1ccccc1N1CCCCC1)c1ccc(F)cc1Cl,4.4,0.72,i,18,-0.2,0,-0.4
O=C(COC(=O)c1ccc([N+](=O)[O-])o1)NC1CCCc2ccccc21 (stereo unspecified),20*,0.67,i,6,1.3,-24,4.2
CC(=O)NC(Cc1ccccc1)C(=O)OCC(=O)c1ccc(Br)cc1 (stereo unspecified),-0.3,0.69,/,-3,-4.0,-7,-2.5
CN(C)S(=O)(=O)c1cccc(NC(=O)CN2C(=O)NC(CCc3ccccc3)C2=O)c1 (stereo unspecified),0.2,0.67,i,1,-0.4,-16,1.9
COC(=O)CCCCC1SCC2NC(=O)NC21O (stereo unspecified),/,/,i,-8,2.0,36,-4.2
N=c1c2c3c(sc2ncn1CCCN1CCOCC1)CCCCC3,3.3,0.7,/,-11,1.9,-16,1.9
CC(C)CC(c1nnnn1C1CCCC1)N1CCN(C(=O)c2ccco2)CC1 (stereo unspecified),2.9,0.73,/,-3,2.7,4,-1.4
CCOC(=O)N1CCN(C(=O)c2ccc3nc(-c4ccccc4)c(-c4ccccc4)nc3c2)CC1,-83,0.67,i,9,0.3,-3,2.9
O=C1Cn2c(nc3ccccc32)N1c1ccccc1F,-0.2,0.68,/,-6,1.5,0,7.0
COc1ccc(NS(=O)(=O)c2ccc(C(=O)OC(C)C(=O)N3CCOCC3)cc2)cc1 (stereo unspecified),-1.0,0.71,i,-3,-2.0,1,7.2
COC(=O)C(C(C)C)N1CCc2c(C)nc3c(C#N)cnn3c21 (stereo unspecified),-54,0.71,i,5,2.9,-1,60*
C[C@H](NC(=O)c1nc[nH]c1C(=O)NCc1ccc(CNC(=O)OC(C)(C)C)cc1)C(=O)OC(C)(C)C,4.3,/,i,0,0.0,2,-3.7
ClC1(Cl)CC1Cn1c(C2CC2)nc2ccccc21 (stereo unspecified),5.1,0.67,i,-2,0.9,/,-8.1
Cc1nc(Cl)sc1C(=O)Nc1cccc(Cl)c1C,2.0,0.65,/,6,-4.8,-10,4.3
O=C(O)c1ccc(S(=O)(=O)Nc2ccc(F)c(Cl)c2)cc1,3.2,0.71,/,0,2.0,/,-2.2
O=C(N[C@@H](Cc1ccccc1)C(=O)N1CCN(S(=O)(=O)c2cccc(F)c2)CC1)c1ccco1,1.1,0.66,i,-13,2.6,-1,9.8
CNc1oc(-c2ccc(F)cc2)nc1S(=O)(=O)c1ccccc1,-1.6,0.67,i,1,-4.1,-4,-1.8
CCOc1cccc(-c2nnc(SCC(=O)Nc3cc(C)ccc3OC)n2N)c1,-0.7,0.65,/,4,3.6,5,-1.6
N#CC1=C(N)OC2=C(C(=O)CCC2)C12C(=O)N1CCCc3cccc2c31 (stereo unspecified),3.1,0.78,/,0,3.2,-2,-3.2
CCC(C)c1ccc(N(C(=O)c2ccco2)C(C(=O)NC2CCCC2)c2cccnc2)cc1 (stereo unspecified),0.0,0.7,i,-2,-1.2,-3,1.1
CCOC(=O)N/N=C\c1ccccc1OC/C=C/c1ccccc1,/,/,i,6,-4.1,-8,-1.1
O=CN1CCN(C2CC(=O)N(c3ccc4c(c3)OCO4)C2=O)CC1 (stereo unspecified),0.7,0.72,/,-2,-3.0,/,7.3
COc1cc(/C=C2/C(=O)N(c3ccc([N+](=O)[O-])cc3)N=C2N2CCOCC2)ccc1O,8.2,0.71,i,8,4.3,60,1.1
Cc1cc(NC(=O)C2CCN(S(=O)(=O)c3cnc[nH]3)CC2)ccc1Br,4.6,0.72,/,3,-2.8,/,2.4
CC1=CC(C)(C)n2c(O)c(N=N)c3cc(C)cc1c32,6.8,0.69,i,-3,1.5,37,1.5
NC(=O)c1ccccc1NCC(=O)c1ccc(Cl)cc1,-64,0.69,i,4,4.9,-3,0.7
CC(O)CSc1nc2c(c(=O)[nH]c(=O)n2C)n1Cc1ccccc1Cl (stereo unspecified),5.6,0.71,i,5,-0.8,-11,2.6
CCCC(C)C(=O)Nc1nc(C)c(-c2csc(Nc3cc(OC)ccc3OC)n2)s1 (stereo unspecified),6.5,0.83,i,21,0.4,-17,-2.5
Cn1c(NCC(O)CO)nc2c1c(=O)n(Cc1ccc(Cl)c(Cl)c1)c(=O)n2C (stereo unspecified),5.6,0.72,/,-2,0.1,/,/
Cc1[nH]c2ccccc2c1C(=O)NS(=O)(=O)Nc1ccc(Cl)cc1,0.2,0.72,+,-2,3.3,0,0.5
CCOc1cccc(-c2c(C(=O)N/N=C/c3ccoc3)nnn2-c2nonc2N)c1,/,/,i,-10,-1.2,6,0.1
Cc1nc2sc(C(=O)Nc3ccccc3)c(N)c2c(C)c1[N+](=O)[O-],4.7,0.67,i,-3,5.3,-12,-0.5
Cc1c(F)cccc1NC(=O)CCC(=O)O,1.3,0.68,/,-2,-0.1,-25,6.7
O=C(COC(=O)/C=C/c1ccccc1)NCCC1=CCCCC1,5.4,0.69,i,-4,0.1,22,-1.8
CC(C)n1nc(C(=O)N2CCN(S(=O)(=O)c3cccs3)CC2)c2ccccc2c1=O,0.8,0.68,i,/,/,-29,-1.3
Cn1c2ccc(F)cc2c2nnc(SCC(=O)Nc3cccc(O)c3)nc21,4.2,0.64,i,1,-3.1,8,-5.1
CC(=O)OC(C)C(=O)NS(=O)(=O)c1ccc(C)cc1 (stereo unspecified),/,/,i,6,1.6,-4,-1.1
Cc1ccccc1-n1cnc2c(sc3nc(N4CCOCC4)c4c(c32)CCCC4)c1=O,-29,0.64,i,17,6.5,-3,0.2
CCOC(=O)C1CCN(S(=O)(=O)c2c(C)noc2C)CC1,0.4,0.68,i,8,7.5,0,0.7
CN(CCc1ccccn1)S(=O)(=O)c1ccc2c3c(cccc13)C(=O)N2,-408,0.66,/,6,2.0,-13,-3.1
CCCCC(=O)NCc1ccc(Cl)cc1,0.7,0.68,/,-6,-0.6,/,3.3
CC1=C(C(=O)OC2CCCCC2)C(c2ccc(C)o2)C2=C(CC(C)(C)CC2=O)N1 (stereo unspecified),-85,0.68,/,-8,-1.1,10,-2.6
COc1cc2c(cc1OC)C(c1ccccc1C)CC(=O)N2 (stereo unspecified),0.9,0.64,i,1,-4.3,3,-1.8
Cc1ccc(C(=O)N2CCN(C3CCCCC3)CC2)s1,0.4,0.69,/,6,2.5,-9,-1.1
CCN(CC)c1ccc(/C=N/NC(=O)c2ccc([N+](=O)[O-])cc2)cc1,/,/,i,5,3.8,-6,-10
O=C1CN(Cc2cc(=O)oc3cc4c(cc23)CCC4)CCN1,-1.4,0.68,i,-7,0.1,-4,0.3
c1ccc(CNn2c(N3CCOCC3)nc3ccccc32)cc1,-2.3,0.73,/,10,0.2,/,/
NC(=O)c1cc(-c2ccccc2)nc(N2CCOCC2)n1,6.8,0.76,/,4,1.4,-2,-2.8
O=S(=O)(c1ccc(OCC(O)CN2CCCCC2)cc1)N1CCOCC1 (stereo unspecified),5.5,0.72,/,1,1.3,-9,-0.8
Cc1[nH]c(C)c(S(=O)(=O)N2CCc3ccccc32)c1C(=O)N1CCCCC1,-0.7,0.66,i,3,-1.7,9,1.4

# Next entries:
SMILES,UCH37 DUB inh,E coli growth,FGF22 binding,Beta2AR agonist,HNF4A DNA FP,ALR H2O2 inh,LANA-H2A inh
O=C1CC(N2CCOCC2)C(=O)N1c1ccc(Cl)cc1 (stereo unspecified),4.1,0.72,i,-3,3.0,-15,3.8
COc1cccc(Cn2cnc3c(NS(=O)(=O)c4cc(Cl)ccc4Cl)c(C)c(C)cc32)c1,2.9,0.76,/,7,-4.7,/,-3.0
O=C(C1=C[C@H](c2csc3ccccc23)C[C@H](OCCCCO)O1)N1CCN(Cc2ccccc2)CC1,3.7,/,i,-11,-2.7,-16,-3.5
O=C(NCc1cccc(Cl)c1)c1cccc(C(F)(F)F)c1,1.5,0.62,i,-1,4.1,-22,2.3
CNc1ccc(S(=O)(=O)NCC(=O)OCC(=O)Nc2cccc(Cl)c2Cl)cc1[N+](=O)[O-],2.8,0.67,/,-8,2.6,-4,-1.8
O=C(COc1ccc(Br)cc1F)NCC1(N2CCCCC2)CCCCC1,-0.7,0.67,/,-4,-0.5,3,1.2
Cc1ccnc(NC(=O)CCC(=O)N(CC(=O)NCCc2ccccc2)c2ccc(F)cc2)c1,-1.2,0.68,i,-13,-1.0,-9,-0.5
COc1ccc(CNC(=O)c2csnn2)cc1,-0.2,0.69,/,-12,-1.1,-10,-2.0
O=C(NNS(=O)(=O)c1ccccc1[N+](=O)[O-])c1ccccc1Cl,-2.1,0.66,i,3,-1.3,-29,-8.4
COc1ccc(/C=C(\NC(=O)c2ccc(C)cc2)C(=O)NCCN2CCOCC2)cc1,/,/,+,2,-2.6,/,17

# One compound at a time, from the list above:
# CCOC(=O)N/N=C\c1ccccc1OC/C=C/c1ccccc1 is listed as UCH37 DUB inh = /; E coli growth = /; FGF22 binding = i; Beta2AR agonist = 6; HNF4A DNA FP = -4.1; ALR H2O2 inh = -8; LANA-H2A inh = -1.1
# COc1ccc(CNC(=O)c2csnn2)cc1 is listed as UCH37 DUB inh = -0.2; E coli growth = 0.69; FGF22 binding = /; Beta2AR agonist = -12; HNF4A DNA FP = -1.1; ALR H2O2 inh = -10; LANA-H2A inh = -2.0

# Next results follow.
SMILES,UCH37 DUB inh,E coli growth,FGF22 binding,Beta2AR agonist,HNF4A DNA FP,ALR H2O2 inh,LANA-H2A inh
Cc1cccc(NC(=O)C2CCCN2S(=O)(=O)c2ccc3c(c2)n(C)c(=O)c(=O)n3C)c1 (stereo unspecified),6.3,0.74,i,-1,0.6,-19,-4.0
COc1ccc(N=C(N)SCc2ccccn2)cc1,5.6,0.71,/,0,14,33,2.5
O=C(Nc1cccc(NC(=O)c2ccc(-c3ccc(Br)cc3)o2)c1)c1ccccc1,-29,0.81,/,5,-0.5,-24,-6.8
Cc1ccc(C(=O)Nc2cc(-c3ccn[nH]3)c(C)n(N)c2=O)cc1,4.7,0.73,i,-12,-0.5,-11,-6.5
CCCCn1ccc(O)c(Cc2ccc(F)cc2)c1=O,7.8,0.78,/,-4,-0.2,-9,-2.4
O=C(NC(=O)c1ccccc1Cl)C(=O)Nc1ccc(Cl)cc1,-1.0,0.71,i,1,1.6,-9,-0.8
Cc1cc(C)n(-c2ncnc3c2oc2ccccc23)n1,-1.5,0.77,/,-13,1.0,8,-0.3
COc1ccc(-c2noc(=O)n2CC(=O)N2CCC(Cc3ccccc3)CC2)cc1,0.0,0.63,i,-5,-3.0,-7,-1.4
CC(=O)c1nn(-c2ccc(C(F)(F)F)cc2)c(=O)[nH]c1=O,2.2,0.68,i,19,0.8,0,3.4
O=C(NC1CCCCCC1)C1CCN(C(=O)Cc2ccccc2)CC1,1.3,0.76,/,2,-1.5,9,2.2
COCCOC(=O)C1=C(C)NC(=O)NC1c1cn(-c2ccccc2)nc1-c1cccs1 (stereo unspecified),-1.1,0.71,/,-10,-1.0,-2,-8.7
Cc1ccc(C(NC(=O)NC(C)c2ccccc2)C(Cl)(Cl)Cl)cc1F (stereo unspecified),2.1,0.72,/,18,3.6,/,/
Cc1cccc(N/N=C/c2ccc(C)s2)c1,/,/,i,-3,3.2,-12,5.2
Cc1cc(NC(=O)Cn2cnc3c2c(=O)n(C)c(=O)n3C)n(-c2ccccc2)n1,-1.6,0.64,/,6,-1.0,-18,-2.5

# Three compounds from above, ordered by the number in HNF4A DNA FP, falling.
SMILES	UCH37 DUB inh	E coli growth	FGF22 binding	Beta2AR agonist	HNF4A DNA FP	ALR H2O2 inh	LANA-H2A inh
Cc1ccc(C(NC(=O)NC(C)c2ccccc2)C(Cl)(Cl)Cl)cc1F (stereo unspecified)	2.1	0.72	/	18	3.6	/	/
Cc1cccc(N/N=C/c2ccc(C)s2)c1	/	/	i	-3	3.2	-12	5.2
COCCOC(=O)C1=C(C)NC(=O)NC1c1cn(-c2ccccc2)nc1-c1cccs1 (stereo unspecified)	-1.1	0.71	/	-10	-1.0	-2	-8.7

# From PubChem BioAssay

# Not all compounds are listed; rates above refer to the full screens.
